# Tgondii IFNg – inhibitors of Toxoplasma gondii growth with IFN-gamma. Toxoplasma gondii growth in IFN-gamma-treated host cells; stronger effect = lower value; reference of the scale not given here. activity change, negative = inhibition, %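 (about 20 µM by stock and volumes)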. actives 3.8% (n = 69,000). AID 1259416;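 active means below -70%; inconclusive means fit judged invalid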;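 further: host cells are HeLa cells infected with Toxoplasma gondii; parasite growth read as luciferase light; one replicate is shown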
# * marks the source's active call; other numbers are inactive results; i = inactive; ? = inconclusive. These rows are one share of the data; count on the stated rates, not on these rows.
SMILES,Tgondii IFNg
C/C=C/c1cccc(-c2nc(C(=O)NCc3cccc(OC)c3)cc3c2[C@H](CCO)N([S@@](=O)C(C)(C)C)C3)c1,-4
Cc1nc2c(c(=O)n1C)CCN(C(=O)Nc1ccc3c(c1)OCO3)CC2,20
O=C(Nc1cc(F)cc(F)c1)c1c(O)c2cccnc2n(-c2ccc(F)cc2)c1=O,37
CO[C@H]1CN(C)C(=O)c2cc(NC(=O)c3nc4ccccc4s3)ccc2OC[C@@H](C)NC[C@H]1C,-13
COc1cccc(-c2ccc3cc(C(=O)N4CCN(C)CC4)c(-c4cocn4)n3c2)c1,-47
CSc1ccc2cc(CN(C)CCc3cn[nH]c3)c(=O)[nH]c2c1,4
CN1CCN(c2ccc(F)cc2)CC1C(=O)O (stereo unspecified),55
CCC(CC)n1nc(C)cc1NC(=O)CCn1nnnc1C,-44
Cc1ccc(C(=O)N2CCC3(CCC3NC(=O)c3cnccn3)CC2)o1 (stereo unspecified),6
COCCCn1nnnc1SCC(=O)Nc1ccc2c(c1)OCCO2,16
Cc1cccc(Nc2nc(C(=O)NCc3cccc(Cl)c3)nc3ccccc23)c1,-96*
COc1ccc(CCC(=O)N2CCC(c3nc(C(=O)N(C)C)c(C)o3)CC2)cc1,-8
NS(=O)(=O)c1cc(C(=O)Nc2cc(F)ccc2F)c(Cl)cc1Cl,38
COc1cc(OC)c(NC(=O)C(Sc2ccc(Cl)cc2)c2ccccc2)cc1Cl (stereo unspecified),5
Cc1ccc(NC(=O)Nc2ccc3c(c2)C(=O)N(C)[C@H]2CC[C@H](CC(=O)NCC(F)(F)F)O[C@H]2CO3)cc1,6
CCOC(=O)c1ccc2oc3ccc(O)cc3c(=O)c2c1,298
CN(C)C(=O)Nc1cccc(-c2ccc(N(C)C)cc2)c1,32
Cn1c(=O)n(C)c2cc(S(=O)(=O)NCc3ccccc3)ccc21,-2
CCOc1cc(C(=O)NCCc2sc(-c3ccc(F)cc3)nc2C)cc(OCC)c1OCC,49
O=C(C1CCOCC1)N1CC2(C1)[C@H](c1ccccc1)[C@@H](CO)N2Cc1ccccc1F,37
COc1ccc2c3c([nH]c2c1)[C@@H](CO)N(C(=O)c1cccc(F)c1)CC31CN(C(=O)CC2CC2)C1,-47
Cc1ccc(Cl)cc1NC(=O)c1nnn(Cc2nc(-c3ccccc3C)oc2C)c1C,207
CCOC(=O)c1cccnc1-c1ccc(-c2ccn[nH]2)cc1,7
Cc1ccc(/C=N/NC(=O)c2ccccc2Oc2ccccc2)o1,5
CCc1ccc(CN2Cc3ccccc3C3(CCN(C)CC3)C2)o1,2
Cc1cnc(C(=O)N2C[C@H]3CN(Cc4cccc(C)n4)C(=O)[C@@H]3C2)cn1,-5
COc1cccc(-c2nn(-c3ccccc3)cc2CN(C)Cc2cccnc2)c1,10
COc1ccc(-c2c(Br)sc(S(C)(=O)=O)c2C#N)cc1,?
Cc1ccc(Cl)cc1N1CCN(CCNS(=O)(=O)c2ccc3[nH]c(=O)ccc3c2)CC1,18
Cc1ccc(-c2ccc(C3[C@H]4CNC[C@@H]3N4Cc3ccc(F)cc3)cc2)cc1 (stereo partly specified),21
CCOC(=O)c1cn2nc(Oc3ccc(NC(C)=O)cc3)ccc2n1,-5
CN1CCCN(C(=O)c2cc3c(c4ccccc4n3CC3CC3)n2C(=O)N(C)C)CC1,89
O=C(Nc1cccc(Cl)c1)N[C@@H]1CC[C@H](CCn2cc(Cc3ccccc3)nn2)O[C@@H]1CO,-49
O=C(Nc1cnn(Cc2cccc(F)c2)c1)c1cnc(-c2ccc(Cl)cc2)nc1,-50
COc1cccc(S(=O)(=O)N[C@H]2CC[C@H](CC(=O)NC3Cc4ccccc4C3)O[C@@H]2CO)c1,-24
C[C@@]1(O)CCN(C(=O)CN2CCCCCC2=O)C[C@@H]1Cc1ccccc1,1
Cc1ccc(SCC(=O)c2ccc(CC(=O)O)s2)cc1,0
Cc1ccc(N2CC[C@@](C)(O)[C@@H](Cc3ccccc3)C2)nn1,-2
COCC(=O)N1C[C@@H](C)[C@H](OC)CN(C)C(=O)c2ccc(NC(=O)Nc3cccc(F)c3)cc2OC[C@@H]1C,21
COc1ccccc1C(=O)N1CCCC2(C1)Nc1cccnc1NC2=NCc1ccccc1 (stereo unspecified),1

# 5 entries out of the list, ordered by SMILES length, ascending.
SMILES,Tgondii IFNg
CCOC(=O)c1cccnc1-c1ccc(-c2ccn[nH]2)cc1,7
COc1cccc(-c2nn(-c3ccccc3)cc2CN(C)Cc2cccnc2)c1,10
Cc1cccc(Nc2nc(C(=O)NCc3cccc(Cl)c3)nc3ccccc23)c1,-96*
COc1cc(OC)c(NC(=O)C(Sc2ccc(Cl)cc2)c2ccccc2)cc1Cl (stereo unspecified),5
Cc1ccc(Cl)cc1N1CCN(CCNS(=O)(=O)c2ccc3[nH]c(=O)ccc3c2)CC1,18

# More records.
SMILES,Tgondii IFNg
Cc1ccc(C)c(CCNC(=O)CC2C(=O)NCCN2C(C)C)c1 (stereo unspecified),6
Cc1ccc(S(=O)(=O)Nc2ccc3c(c2)C(=O)N([C@@H](C)CO)C[C@H](C)[C@H](CN(C)Cc2ccc(C(F)(F)F)cc2)O3)cc1,-57
Cc1cc(C(F)(F)F)nn1Cc1ccc(C(=O)O)o1,35
CCOc1ccccc1-c1nc(C(F)(F)F)nc(C)c1C,-17
COCCO[C@H]1CCN(C(=O)c2ccc[nH]2)[C@H]1Cc1cccnc1,-2
Cc1ccsc1-c1nc(CN2CCCN(C(=O)C3CCCO3)CC2)c(C)o1 (stereo unspecified),-47
COCC(=O)Nc1ccc2c(c1)C(=O)N(C)C[C@H](OC)[C@H](C)CN(CCc1ccccc1)[C@@H](C)CO2,113
Cc1ccc2[nH]cc(-c3ccc(C(=O)N(C)C)o3)c2c1,228
COc1ccc(CC(=O)Nc2ccc(-c3nc(-c4cc(C)ccc4C)co3)cc2)cc1,-11
O=C1CCC2(CCN1)CCN(c1nc3ccccc3s1)CC2,159
CN1CCN(Cc2noc(C3CCOC(C)(C)C3)n2)CC1 (stereo unspecified),11
CS(=O)(=O)N1CCC[C@@H]1Cn1nc(-c2cccs2)ccc1=O,1
O=C(C1CCCCO1)N1CCc2[nH]nc(-c3ccc(-c4ccccc4)cc3)c2C1 (stereo unspecified),-40
CCn1c(=O)c(C(=O)Nc2nccc(C)n2)c(O)c2ccccc21,55
O=C(CCn1cnnn1)Nc1ccc(N2CCOCC2)c(C(F)(F)F)c1,21
O=C(c1ccccc1)N1CCc2c([nH]c3ccccc23)C1c1cccnc1 (stereo unspecified),85
CCc1ccc(OCCN(C)C(=O)c2ccc(C)[nH]c2=O)cc1,-3
CCCc1nc(N(C)Cc2cnc(NC)nc2)c2cnn(C)c2n1,-8
COC(=O)c1ccc(C(=O)N2CCC(C(=O)c3ccnn3C)CC2)s1,-22
COc1ccc(CC(=O)NC2(C#Cc3cncc(C(N)=O)c3)CCCCC2)cc1,6

# A second format for some results above:
Compound	Tgondii IFNg
CS(=O)(=O)N1CCC[C@@H]1Cn1nc(-c2cccs2)ccc1=O	1
O=C(C1CCCCO1)N1CCc2[nH]nc(-c3ccc(-c4ccccc4)cc3)c2C1 (stereo unspecified)	-40
CCn1c(=O)c(C(=O)Nc2nccc(C)n2)c(O)c2ccccc21	55
O=C(CCn1cnnn1)Nc1ccc(N2CCOCC2)c(C(F)(F)F)c1	21

# Continuation.
SMILES,Tgondii IFNg
CC(C)CNC(=O)c1cc2c(s1)CCN2c1ncccn1,-44
C=CCN1CCN(C(=O)C2CC=CC2)Cc2cccnc21,-4
CCOc1ccc(C(=O)NCCc2sc(-c3ccc(Cl)cc3)nc2C)cc1,-82*
CCc1nc(OCC(=O)Nc2ccccc2C)c2ccccc2n1,6
Cc1ccc(NC(=S)NCCO)cc1,23
Cc1cc(CNc2cc(N)ncn2)c2[nH]c(-c3ccccc3)c(C)c2c1,199
COCC(=O)N1CCOCC2(CCC(Cn3cccn3)O2)C1 (stereo unspecified),-14
Cc1c2c(nn1Cc1ccccc1)NC(=O)CC2c1ccnc(C(C)C)n1 (stereo unspecified),-1
CN(Cc1ccccc1)Cc1ccccc1,19
COc1ccc(-c2ccc([C@@H]3[C@@H](C#N)N(C(=O)NC(C)C)[C@H]3CO)cc2)cc1,6
O=C(C[C@@H]1CC[C@H](NS(=O)(=O)c2ccc(F)cc2)[C@H](CO)O1)N1CCN(c2ccccc2)CC1,-30
COc1cccc(-n2c(=O)c(C(=O)Nc3ccc(F)c(F)c3)c(O)c3cccnc32)c1,256
COCC1CN(Cc2ccc3c(c2)OCO3)Cc2ncn(C)c21 (stereo unspecified),63
O=C(O)CCC1CCC(c2cc(F)ccc2F)(S(=O)(=O)c2ccc(Cl)cc2)CC1 (stereo unspecified),10
COc1ccc2c3c([nH]c2c1)[C@H](CO)N(Cc1ccc2c(c1)OCO2)CC31CCN(C(=O)Nc2c(C)noc2C)CC1,-13
COc1ccc(-c2nc(C)c(CCNC(=O)C(=O)Nc3ccccc3)s2)cc1,1
CC(=O)Nc1cccc(-n2nnc(SCc3cc(Cl)cc4c3OCOC4)n2)c1,-12
O=C(COc1ccc2nncn2n1)NC1(c2ccccc2F)CCCC1,-34
Cc1ccc2cc(CN3CCCOCC3)c(=O)[nH]c2c1,2
O=C(NC[C@@H]1[C@H](c2ccccc2)[C@H](CO)N1Cc1ccccn1)C1CCCC1,-2
CCOc1ccccc1C(=O)NCCc1csc(-c2cccc(F)c2)n1,-91*
O=c1[nH]c2cc(F)ccc2c(O)c1-c1nc(-c2ccccc2Cl)no1,-28
COCc1cc(CN2CCN(Cc3cccc(Cl)c3)CC2)ccc1OC,-3
CCn1ncc2c1CN(Cc1c(C)noc1C)CC2COC (stereo unspecified),-3
CC(C)(N)C(=O)N1CCCC(c2cc(Nc3cccc(F)c3)nc(-c3cccnc3)n2)C1 (stereo unspecified),-82*
CC(C)CC(O)C(=O)N1CCCN(C(=O)c2ccco2)CC1 (stereo unspecified),-1
COc1cccc(-c2ccc3c(c2)[C@@H]2[C@@H](CCN2S(=O)(=O)c2cn(C)cn2)[C@@H](CO)N3)c1,6
Cc1nc(-c2ccc(Cl)cc2)sc1CCNC(=O)C(=O)Nc1ccc(C(N)=O)cc1,42
O=C(C1CCOC1)N1CCC2(CC1)CN(c1ncccn1)c1ccccc12 (stereo unspecified),13
Cc1ccc(NC(=O)c2cccc3[nH]cc(CN4CCCC4)c23)cc1,183
Cc1nn(-c2ccccc2)c(C)c1CC(=O)N1CCc2c(c(C(=O)N(C)C)nn2Cc2ccccc2)C1,5
CNC(=O)[C@H]1C[C@@H]2OCC[C@@H]2N(CCOc2ccc(Cl)cc2)C1,-29
COc1ccc(C(=O)C2CCCN(C(=O)CCc3c(C)noc3C)C2)cc1 (stereo unspecified),52
Cc1ccc(-c2cnc(NC(=O)CNS(=O)(=O)N(C)C)n2C)cc1C,21
CC(C)Cc1cc(CNc2nc(-c3cccnc3)nc3c2CCNC3)no1,-36
CO[C@@H]1CC[C@H]2CCOc3c(C#N)cccc3C(=O)N(C)C[C@@H](OC)[C@H](C)C(=O)N(C)C[C@@H]1O2,-3
c1ccc(Nc2nnc(-c3cnccn3)s2)cc1,156
CC(C)N(CCC(N)=O)CC1CC=CCC1 (stereo unspecified),-4
C=CCOCC1CN(C(N)=O)Cc2nccn2C1 (stereo unspecified),-19
CCOc1ccc(-c2nc(Cn3ccn4nc(-c5ccccc5OC)cc4c3=O)c(C)o2)cc1OC,i
CCCCOc1ccccc1-c1cc2c(=O)n(Cc3nc(-c4ccccc4)oc3C)ccn2n1,-32
CC(C)N1CCNC(=O)C1CC(=O)NCCc1nc2ccc(Cl)cc2[nH]1 (stereo unspecified),8
N#Cc1c2c(c(-c3ccccc3)[nH]c1=S)CCCC2,-10
N#CCC(N)=C(C#N)C#N,-4
C[C@H]1CC=CC[C@H](c2ccccc2)NC(=O)[C@H](C)N(C)C(=O)c2ccccc2O1 (mixture of isomers),-25
O=S(=O)(N1CCCC1)N1CC(CN2CCOCC2)c2ccccc21 (stereo unspecified),15
COc1ccc(Cl)cc1NC(=O)Cn1nc(C(F)(F)F)cc1C,-30
Cc1cc(-c2c(-c3ccccc3)ncn2CCS(C)(=O)=O)n[nH]1,0
Cc1ccc(S(=O)(=O)N(C)C[C@@H]2OCCCC[C@@H](C)Oc3ccc(NC(=O)c4ccncc4)cc3C(=O)N([C@@H](C)CO)C[C@@H]2C)cc1,26
Cc1cccc(C(=O)N2CCO[C@@H]3[C@H]2CC[C@H]3OCc2cccnc2)n1,-18

# (continued)
SMILES,Tgondii IFNg
COc1cccc(NC(=O)CC2NCCNC2=O)c1 (stereo unspecified),46
CCCc1nc(C(=O)Nc2ccc(NC(=O)CC)c(Cl)c2)cs1,2
Cc1ccc(NC(=O)C(=O)NCCc2sc(-c3ccccc3)nc2C)cc1C,24
C[C@@H]1CN([C@@H](C)CO)C(=O)c2c(c3ccccc3n2C)-c2ccccc2CO[C@H]1CN(C)C(=O)[C@@H](Cc1ccccc1)N(C)C,62
Cc1nc2c(c(NCCCN3CCCC3=O)n1)CNC2,0
O=C1COC2(CCN(C(=O)c3ccc4c(c3)OCO4)CC2)CN1,5
Cc1oc(-c2ccc(C(=O)N3CCC(C(N)=O)CC3)cc2)nc1CN1CCN(c2ccccc2)CC1,56
O=C1CCC(=O)N1CNc1ccc(C(F)(F)F)cc1,50
COc1ccc2c3c(n(C)c2c1)[C@H](CO)N(C(=O)C1CC1)CC31CCN(C(=O)CN(C)C)CC1,10
Cc1cccc(CC(=O)N(C)CC2Cc3ccccc3O2)c1 (stereo unspecified),-13
CCOc1ccc(NC(=O)c2c(O)c3cccnc3n(-c3cccc(F)c3)c2=O)cc1,88
COc1ccccc1NC(=O)CN1CCC2(CC1)N=C(c1ccc(C(C)(C)C)cc1)C(=O)N2,10

# 2 compounds picked at random from the list so far:
SMILES,Tgondii IFNg
Cc1cccc(CC(=O)N(C)CC2Cc3ccccc3O2)c1 (stereo unspecified),-13
CCOc1ccc(NC(=O)c2c(O)c3cccnc3n(-c3cccc(F)c3)c2=O)cc1,88

# Assay outcomes as filed in PubChem BioAssay.
